Source: PubChem (National Center for Advancing Translational Sciences (NCATS))
gsp ag = qHTS for Agonist of gsp, the Etiologic Mutation Responsible for Fibrous Dysplasia/McCune-Albright Syndrome: qHTS; gsp mutant cells, cAMP HTRF, 30 min; control for the full effect not named in the record; Potency, µM (series often up to 76.9 µM), without a hit: at the top dose activation (cAMP increase), most hits filed as activators; hit rate 0.13% among 340,000; active = well fitted activation curve with a large enough effect; inconclusive = small, poorly fitted or top-dose-only effect, or another doubt; inactive = no such curve, though single readings can be large or run the other way; cell line not stated here;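 further: phosphodiesterase inhibitor Ro 20-1724 added with compounds to block cAMP breakdown; potency means the concentration at half of the fitted maximal effect; nearly all actives have a fitted effect of over 60% in size; about a fifth of the inactives were tested at one dose only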
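Cells in DMEM/10% FBS with G418 were pretreated with compounds in DMSO plus […] (300 uM stock) for 30 min at 37C. cAMP was measured by HTRF (cAMP-d2 plus anti-cAMP antibody-K) after 30 min at room temperature.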
Menin MLL FP FL = qHTS Assay for Inhibitors Targeting the Menin-MLL Interaction in MLL Related Leukemias: Competition With Fluorescein Labeled MLL-derived Peptide | Fluorescence polarization, fluorescein-MLL peptide displacement from menin | FP activity change, % at 61.4 µM | 290,000 tested, under 10 active; inconclusive = falling polarisation curve, or a change in total fluorescence; inactive = total fluorescence flat and polarisation flat or rising; no compound was filed as active; the % refers to the polarisation; negative = inhibition;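 further: % of control where 0% means no effect; inhibitors lower the polarisation; unlabelled MLL peptide was the positive control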
gsp antagonist = qHTS for Antagonists of gsp, the Etiologic Mutation Responsible for Fibrous Dysplasia/McCune-Albright Syndrome: qHTS; gsp-mutant cells, cAMP HTRF, 30 min; control for the full effect not named in the record; Potency, µM (titrated, usually from 76.9 µM), for the others: at the highest dose activity change, negative = inhibition, usual class: inhibitors; hit rate 0.4% among 340,000; active = falling curve of any shape with a large fitted effect; inconclusive = falling curve, mostly with a smaller effect; inactive = flat or rising curve; cell line not stated here;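 further: intracellular cAMP measured with PDE inhibitor Ro 20-1724 present during compound exposure; potency means the concentration at half of the fitted maximal effect; on the % scale 0 is the no-effect control and ±100 the full control effect; nearly all actives have a fitted effect of over 65% in size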
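Measurement of cellular cAMP by homogeneous time-resolved fluorescence following a 30 min compound exposure at 37C. The PDE inhibitor […] was present throughout; the assay buffer was DPBS with 0.05% BSA and 0.005% Tween 20.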
TRPML1 blocker = qHTS for Inhibitors of the Human Mucolipin Transient Receptor Potential 1 (TRPML1); AID 624415, 2012; hit rate 0.02% among 390,000; Mucolipin-1 (Homo sapiens), Q9GZU1; TRPML1-inducible cells, Ca2+ dye fluorescence, FDSS; active compounds read low; inhibition of EC80 agonist-evoked calcium signal; activity change, negative = inhibition, % (concentration not given with the values); in the data active means activity change below about -50%; inconclusive means about -30% to -50%; inactive means above about -30%;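 further: stimulus is agonist 54-4 at its EC80 concentration; on the % scale 0 is the no-effect control and ±100 the full control effect; the text of the record puts the active cut at -80%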
Target sequence (Q9GZU1 whole entry, looked up): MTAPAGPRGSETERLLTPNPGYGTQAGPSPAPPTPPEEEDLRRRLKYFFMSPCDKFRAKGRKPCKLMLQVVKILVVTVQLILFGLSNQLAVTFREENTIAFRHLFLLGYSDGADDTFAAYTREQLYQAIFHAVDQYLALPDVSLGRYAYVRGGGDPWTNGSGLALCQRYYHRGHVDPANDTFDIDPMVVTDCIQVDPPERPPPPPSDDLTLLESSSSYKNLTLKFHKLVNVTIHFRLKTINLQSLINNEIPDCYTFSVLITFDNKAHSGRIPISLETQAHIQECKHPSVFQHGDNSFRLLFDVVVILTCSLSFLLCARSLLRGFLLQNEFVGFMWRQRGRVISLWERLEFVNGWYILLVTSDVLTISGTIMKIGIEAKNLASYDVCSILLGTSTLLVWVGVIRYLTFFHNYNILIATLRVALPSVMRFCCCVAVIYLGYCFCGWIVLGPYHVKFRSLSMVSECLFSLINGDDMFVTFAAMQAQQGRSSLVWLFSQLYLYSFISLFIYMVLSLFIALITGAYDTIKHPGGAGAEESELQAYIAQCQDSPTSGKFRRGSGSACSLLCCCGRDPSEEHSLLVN
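Calcium fluorescence in TRPML1-DL cells induced overnight with Tet: a 110 s read after compound pin addition, then a 110 s antagonist read after challenge with 54-4 at 4 uM final (EC80).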
Sfp PPTase inh = qHTS Assay for Inhibitors of Bacillus subtilis Sfp phosphopantetheinyl transferase (PPTase). hit rate 3.5% among 310,000. AID 1490, 2009. 4'-phosphopantetheinyl transferase ffp (Bacillus subtilis), Q9F4F7. Biochemical Sfp PPTase activity, qHTS. Potency, µM, for the others: max response, negative = inhibition, usual class: inhibitors; active means well fitted inhibition curve with a large enough effect; inconclusive means small, poorly fitted or top-dose-only effect, or another doubt; inactive means no such curve, though single readings can be large or run the other way;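 further: the enzyme is Sfp with the accession as filed and its product quenches rhodamine fluorescence; potency means the concentration at half of the fitted maximal effect; 0% = enzyme reaction without inhibitor and -100% = no enzyme wells; top concentration of the series not given in the record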
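Sfp 15 nM + cpd, 15 min RT; start w/ rhodamine-CoA 5 uM, BHQ-2-YbbR 12.5 uM (final); 50 mM Hepes pH 7.6, 10 mM MgCl2, 0.01% NP-40, 0.01% BSA; read 525/598 nm at 0 and 30 min.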
TRPV1 potentiator = HTS Assay for Compounds that Act as Potentiators of the Vanilloid Receptor 1. potentiation, % at 8.33 µM. TRPV1-expressing cells, Fluo-8 calcium influx, capsaicin EC20 potentiation; host cell line not named in the record; control for the full effect not named in the record. Transient receptor potential cation channel subfamily V member 1 (Homo sapiens), Q8NER1. hit rate 0.02% among 320,000; active means potentiation above 80%; inconclusive means 30% to 80%; inactive means below 30%; further: 0% is about no effect
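TRPV1-expressing cells were cultured overnight at 35.5C and loaded with Fluo-8 calcium dye for 40 to 90 min at room temperature. After a 10 s baseline, compound was added and calcium influx was read kinetically for 3 min (ex 480/em 520 nm).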
ClpP mod = qHTS Assay for Activators of ClpP | AID 651965, 2013 | ATP-dependent Clp protease proteolytic subunit (Bacillus subtilis (strain 168)), P80244 | hit rate 1.9% among 340,000 | Potency, µM (highest dose often 57.5 µM), without a hit: at the highest dose activity change, negative = active | purified B. subtilis ClpP, FRET peptide cleavage, 20 min; active = well fitted falling curve with a large enough effect; inconclusive = small, poorly fitted or top-dose-only effect; inactive = no such curve, though single readings can be large or run the other way; further: potency means the concentration at half of the fitted maximal effect; the source files actives as falling curves though it sought activators and does not explain the sign; nearly all actives have a fitted effect of over 65% in size; many hits overshoot -100%
Target sequence (P80244 whole entry, looked up): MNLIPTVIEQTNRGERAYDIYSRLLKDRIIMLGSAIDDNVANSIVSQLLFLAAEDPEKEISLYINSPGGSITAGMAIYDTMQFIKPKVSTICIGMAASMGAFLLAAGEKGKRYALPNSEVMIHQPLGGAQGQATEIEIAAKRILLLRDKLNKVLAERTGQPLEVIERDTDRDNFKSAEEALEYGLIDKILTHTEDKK
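FRET quenching reversal measured ClpP activation: 10 microg/mL B. subtilis ClpP at pH 8 with the FRET-FV decapeptide, read at 430 nm after 320 nm excitation. The 20-min minus 0-min signal was scaled between DMSO/no-enzyme wells and ADEP (5.8 microM final).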
Starred values were filed as active, the others as inactive; ? = inconclusive; . = not tested or not shown; [ ] = another dose, or the depositor's remark.

SMILES | gsp ag | Menin MLL FP FL | gsp antagonist | TRPML1 blocker | Sfp PPTase inh | TRPV1 potentiator | ClpP mod
COc1ccccc1C(CNC(=O)CNC(=O)c1ccc(C)c(C)c1)N1CCCC1 (centres undefined) | -6% | . | 12% | -11 | . | -6 | -3.3%
Cc1ccc(C(=O)OCC(=O)NC(=O)c2ccccc2)o1 | -30%[15.4 µM] | . | 3% | 9 | . | -4 | .
CCOc1nc2ccccc2nc1NS(=O)(=O)c1ccc(Cl)cc1 | 19% | 1.1 | -8% | -8 | 16% | 15 | -6.3%
COCCCn1c(=O)c2sccc2n2c(CCCC(=O)N(C)Cc3ccco3)nnc12 | 20% | -0.7 | -9% | 7 | 2% | 3 | .
Cc1ccc(CSc2cc(C)[nH]c(=O)n2)cc1 | 7% | . | 3% | -14 | 2% | 11 | 1.6%
COCCOC(=O)c1c(NC(=O)CSc2cccc[n+]2[O-])sc(C(N)=O)c1C | -13%[15.4 µM] | -0.3 | 7% | -9 | 11% | 0 | -4.1%
CCCC/C(O)=N\S(=O)(=O)c1ccc(N=NN(C)C)cc1 | 6% | -0.9 | 3% | 0 | -1% | 7 | 0.8%
COc1ccc(N(CC(=O)Nc2cccc(C)c2)S(=O)(=O)c2c(C)noc2C)cc1 | 15% | . | 6% | 0 | 10% | -10 | 0.9%
O=C(C1CCCCN1S(=O)(=O)c1ccccc1)N1CCCCC1 (centres undefined) | 5% | 7.5 | 12% | 0 | -8% | -7 | -0.2%
O=C(NCc1ccc(Cl)cc1)c1ccc(NC(=O)C2CCCO2)cc1 (centres undefined) | 7% | 1.5 | -2% | 4 | 21% | -2 | .
O=C(/C=C/c1cccs1)N1CCC2(CC1)Oc1ccc(F)cc1C(=O)C21CC(c2ccc(Cl)cc2)=NO1 (centres undefined) | . | 0.3 | -5% | 2 | -8% | ? | -0.1%
O=C(NCc1ccccc1)NC(O)C(Cl)(Cl)Cl (centres undefined) | -28% | 1.1 | 9% | 46 | 13% | -4 | .
COC(=O)C1CCN(Cc2ccc(OCCCN3CCN(c4ccc([N+](=O)[O-])cc4)CC3)cc2)CC1 | -7%[15.4 µM] | -0.6 | -5% | -3 | 6% | 10 | .
CNC(=O)CN(c1cc(C)ccc1OC)S(=O)(=O)c1ccc(C)cc1 | -42%[inhibitor] | -1.8 | -10% | 14 | 14% | 8 | -3.7%
CCOC(=O)C1=C(C)Nc2sc(C(=O)c3ccc(Br)cc3)c(N)c2C1c1ccc(C(=O)OC)cc1 (centres undefined) | -5% | 7.1 | 3% | 8 | 16% | -17 | -0.2%
CCCCNC(=O)Cn1c(=O)n(C)c2ccccc21 | -8% | -1.9 | 11% | 11 | -6% | 4 | 0.7%
CCOc1ccc(NC(=O)COC(=O)c2cc(=O)c3ccccc3o2)cc1 | -1% | . | 7% | -1 | . | -5 | 2.6%
O=C(O)c1cccc(N/N=C/c2cccnc2)c1 | -3%[15.4 µM] | -3.8 | -8% | -15 | 23% | -5 | -1.0%
CCC(C)(C)NC(=O)CN(C(=O)CCC(=O)Nc1nccs1)c1ccc2c(c1)OCCO2 | 1% | -9.1 | ? | 15 | 14% | 11 | .
Fc1cccc(CN2CCN3CCCC3C2C2CCCCC2)c1 (centres undefined) | 6% | -1.8 | 5% | 43 | -5% | 0 | -2.2%
O=C(CC1SC(N2CCCC2)=NC1=O)Nc1ccc(C(=O)Nc2ccccc2)cc1 (centres undefined) | 0% | . | 6% | 9 | . | 13 | -0.3%
CNS(=O)(=O)c1ccc(C(C)(C)C)cc1 | -1%[15.4 µM] | -6.2 | 12% | 36 | 19% | -15 | .
Cc1ccc2sc(N3CCN(C(=O)c4ccc([N+](=O)[O-])o4)CC3)nc2c1C | -18%[15.4 µM] | . | 8% | 87 | . | -8 | 1.2%
COc1ccccc1NC(=O)C1CCCN1C(=O)NC1CCCCC1 (centres undefined) | -3%[15.4 µM] | 5.9 | 7% | -26 | 7% | -6 | .
CNC(=S)NCCc1ccc(OC)cc1 | 12%[15.4 µM] | 2.0 | 6% | 18 | -28% | 3 | .
(more compounds)
SMILES | gsp ag | Menin MLL FP FL | gsp antagonist | TRPML1 blocker | Sfp PPTase inh | TRPV1 potentiator | ClpP mod
CCSc1nnc(Cn2c(=O)sc3ccccc32)n1C | 6% | -0.5 | 8% | -9 | 12% | -4 | -1.1%
CC(C)Sc1nc2ccc(N3C(=O)C4CCCCC4C3=O)cc2s1 (centres undefined) | 6% | -2.2 | 8% | -15 | 13% | -9 | -1.3%
O=C(COc1ccc(Cl)cc1)NCc1cn2cc(Cl)ccc2n1 | 1%[15.4 µM] | -0.3 | -16% | 6 | 13% | -3 | .
O=C(CSc1ccc(-c2ccncc2)nn1)N1CCCC1 | 16% | 2.2 | -3% | 19 | 16% | -6 | 1.4%
CCCNC(=O)c1cnc(Sc2ncc(C(F)(F)F)cc2Cl)n1C | -30% | 1.9 | -2% | -2 | 16% | 0 | 1.0%
O=c1cc(-c2ccc([N+](=O)[O-])cc2)nc2cc(-c3ccc(Cl)cc3)[nH]n12 | . | -0.2 | . | . | -9% | 5 | .
CC(=O)c1ccc(NC(=S)NC(C)c2ccc(Cl)cc2Cl)cc1 (centres undefined) | -6%[15.4 µM] | 1.4 | ? | 18 | 4% | 13 | -2.5%
CCS(=O)(=O)c1nc2ccccc2n1Cc1ccccn1 | 12%[15.4 µM] | -2.2 | 14% | -8 | 21% | -3 | 0.6%
Cc1ccc(C2=C(c3ccc([N+](=O)[O-])cc3)C(=O)OC2)cc1C | 12%[15.4 µM] | 9.1 | -11% | 12 | 6% | -4 | 0.1%
COc1ccc(S(=O)(=O)c2c(O)c3ccc(C(=O)Nc4ccc(F)cc4F)cc3[nH]c2=O)cc1 | -29% | 4.4 | 9% | 4 | 29% | -1 | -13%
CCOC(=O)N1CCN(Cc2nc(Cc3cccc(C(F)(F)F)c3)no2)CC1 | -1% | 1.4 | -3% | -3 | 0% | -5 | -2.3%
C[C@H](CO)N1C[C@H](C)[C@@H](CN(C)S(=O)(=O)c2ccccc2)Oc2c(NC(=O)C3CC3)cccc2C1=O | . | . | 4% | -11 | . | . | -0.7%
CC(C)C(C)NC(=O)COc1ccc(OCc2ccccc2)cc1 (centres undefined) | -13%[15.4 µM] | -3.4 | -6% | -18 | 12% | -12 | .
CCOC(=O)/C=c1/s/c(=C/c2ccc3cc(OC)ccc3c2)c(=O)n1CC(=O)NCc1ccc2c(c1)OCO2 | -1% | . | 3% | -2 | . | . | .
C#CCCCc1nc2ccccc2c(=O)n1N | -9%[15.4 µM] | 6.3 | 13% | 1 | 9% | 9 | -0.3%
COC(=O)[C@]1(Cc2ccccc2)N[C@H](CN(C)S(=O)(=O)c2ccc(C(C)(C)C)cc2)[C@@H]2C(=O)N(Cc3ccccc3)C(=O)[C@@H]21 | . | . | -9% | -4 | . | . | 0.5%
CCn1cc(C(=O)N2CCCC(N3CCN(c4cccc(C(F)(F)F)c4)CC3)C2)cn1 (centres undefined) | ? | . | -6% | 10 | 9% | -9 | 0.5%
O=C(O)c1ccc(Oc2c(C(F)(F)F)oc3cc(O)ccc3c2=O)cc1 | -13%[15.4 µM] | 0.4 | 6% | 31 | 10% | -1 | .
CCc1ccc(S(=O)(=O)NCc2csc(-c3ccccc3)n2)s1 | ? | 2.1 | 1% | 1 | -6% | -2 | -1.1%
Cc1ccc(S(=O)(=O)CCc2nnc(NC(=O)c3ccco3)s2)cc1 | 29% | -0.3 | -2% | 9 | 13% | 2 | .
COc1ccc(N(Cc2cc3cccc(C)c3[nH]c2=O)S(=O)(=O)c2ccc(OC)cc2)cc1 | -22% | 3.9 | -14% | 42 | 16% | 1 | -22%
O=C(NC1CCCCCCC1)c1ccc2c(c1)N(Cc1ccc(F)cc1)C(=O)CS2=O (centres undefined) | -40%[inhibitor] | -0.1 | -29% | 9 | 0% | -2 | -1.3%
CC12CC3(C)CC(C)(C1)CC(C(=O)NCCc1ccc(S(N)(=O)=O)cc1)(C2)C3 | -8%[15.4 µM] | . | -4% | 18 | 20% | -12 | -16%
O=C1CCc2cc(S(=O)(=O)N3CCC(C(=O)NCc4ccccc4Cl)CC3)ccc2N1 | 15% | 0.4 | -11% | -14 | 4% | 9 | -0.9%
COC(=O)c1ccc(NC(=O)Cn2nc(C)cc2C)cc1 | -23%[15.4 µM] | -0.5 | 6% | -13 | 7% | 3 | .
Going on with the list.
SMILES | gsp ag | Menin MLL FP FL | gsp antagonist | TRPML1 blocker | Sfp PPTase inh | TRPV1 potentiator | ClpP mod
CCN(CC)c1ccc(/C=N/NC(=S)NC)c(O)c1 | -11% | -2.5 | -2% | -23 | -8% | -16 | ?
O=C(Cc1ccc(-n2cccc2)cc1)NCc1cccs1 | 4% | 2.5 | 3% | -5 | 13% | -20 | -0.6%
NS(=O)(=O)c1cccc(NC(=O)COC(=O)CCC(=O)c2cccs2)c1 | -2% | . | 7% | -7 | . | . | -0.5%
CC1(C)CC(Nc2ccc(C(F)(F)F)cc2[N+](=O)[O-])CC(C)(C)N1 | -23% | -0.5 | 4% | -12 | 13% | 0 | -0.1%
CCc1ccc(C(=O)NNC(=O)c2ccc(OCC(=O)N3CCOCC3)c(OC)c2)cc1 | -44%[inhibitor] | . | 3% | -14 | . | 9 | -0.1%
Cc1ccc(CNC(=O)CS(=O)CC(=O)O)cc1 (centres undefined) | -6% | 1.0 | 0% | -6 | 4% | 6 | 1.5%

Rows were taken by chance. About 4.9% of those tested had a hit in this group.
